High-throughput results from PubChem.
Tgondii IFNg – blocks Toxoplasma gondii growth in the presence of IFN-gamma | Toxoplasma gondii growth in IFN-gamma-treated host cells; hits give low values; reference of the scale not given here | activity change, negative = inhibition, %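 (about 20 µM by stock and volumes)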 | 69,000 tested, 3.8% active | AID 1259416;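 active means below -70%; inconclusive means fit judged invalid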;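 further: host cells are HeLa cells infected with Toxoplasma gondii; parasite growth read as luciferase light; one replicate is shown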
Numbers without * were called inactive; i = inactive; ? = inconclusive.

| molecule | Tgondii IFNg |
| --- | --- |
| O=C(NCCc1csc(-c2ccc(F)cc2)n1)C(=O)Nc1cc(F)ccc1F | -24 |
| O=C(O)c1ccc2noc(-c3ccccc3)c2c1 | 334 |
| Cn1ccc2c(-c3cccc(O)c3)ccnc21 | -77* |
| CCOc1ccccc1C(=O)NCCc1sc(-c2cccc(F)c2)nc1C | -28 |
| Cc1cc(Cl)ccc1NC(=O)COCC(=O)O | 113 |
| Cc1ccnc(SCc2cc(=O)[nH]c(Nc3nc(C)c4ccccc4n3)n2)n1 | -13 |
| COCC(=O)Nc1ccccc1-c1ccc(C(C)C)cc1 | 177 |
| CN(C)S(=O)(=O)N1C[C@@H]2CN(Cc3ccoc3)CCO[C@H]2C1 | -43 |
| O=C1CC(COCc2ccccc2)c2c(n[nH]c2-c2cccs2)N1 (stereo not drawn) | -17 |
| COc1ccc(-c2ccc(OC)c3nc(C)ccc23)nn1 | 6 |
| C=CCN1CC[C@@H]2OC[C@H](C(=O)NCc3cnc(C)cn3)C[C@H]2C1 | 3 |
| O=c1/c(=C/c2cn(-c3ccccc3)nc2-c2ccc(F)cc2)sc2nc3ccccc3n12 | 21 |
| CC(C)CNC(=S)NCCNC(=O)OC(C)(C)C | 30 |
| Cn1cc(CN2CCCC3(COCCN(c4cccc(C#N)c4)C3)C2)cn1 (stereo not drawn) | -30 |
| CCCNC(=O)Nc1ccc2c(c1)OC[C@H](C)N(Cc1cncnc1)C[C@@H](C)[C@@H](OC)CN(C)C2=O | 94 |
| CC(c1cccc(-c2c(-c3ccccc3)ncn2Cc2ncc[nH]2)c1)N(C)C (stereo not drawn) | 4 |
| CC(C)C(NC(=O)CCc1ccncc1)c1ccc2c(c1)OCCCO2 (stereo not drawn) | -2 |
| Cc1nn(C)c(C)c1-c1ccnc(N2CCC(c3ccccc3Cl)C2)n1 (stereo not drawn) | 35 |
| CO[C@H]1CC[C@@H]2[C@@H]1OCCN2C(=O)c1ccc2ccccc2c1 | -3 |
| CN1C[C@@H](NC(=O)c2ccco2)C[C@H]1C(=O)N1CCc2ccccc2C1 | 3 |
| COc1ccc2c(c1)NC1(CCN(S(=O)(=O)c3ccc(F)cc3F)CC1)c1cccn1-2 | 23 |
| O=C1OC(COc2ccc(Br)cc2)CN1c1ccccc1 (stereo not drawn) | -3 |
| COc1cccc(-n2c(=O)c(C(=O)NCc3ccc(F)cc3)c(O)c3cccnc32)c1 | 16 |
| CCN(CC)CCCCNc1ncc2cc(-c3cc(OC)cc(OC)c3)c(NC(=O)NC(C)(C)C)nc2n1 | -48 |
| CC(C)CCN1C[C@]23CN(C(=O)c4cn(C)c5ccccc45)C[C@@H](C[C@H]2S1(=O)=O)O3 | -44 |
| Fc1ccc(N2CCN(c3nc(-c4ccc(Cl)cc4)nc4ccccc34)CC2)cc1 | 32 |
| O=C(O)c1cc(=O)cc2n1CCNC2=O | -13 |
| Cn1cnc2c1C(C(=O)O)CN(C(=O)c1ccsc1)C2 (stereo not drawn) | -50 |
| Cc1nnc(SCC2=C(C(=O)O)N3C(=O)[C@@H](N)[C@H]3SC2)s1 | 4 |
| Cc1ccc(N2CCCc3sc(C(=O)NCCCN(C)C)nc32)nn1 | -6 |
| Cc1noc(C)c1NC(=O)Nc1ccc2c(c1)C(=O)N([C@H](C)CO)C[C@H](C)[C@H](CN(C)Cc1ccc3c(c1)OCO3)OCCCC[C@H](C)O2 | 266 |
| CN1CCN(S(=O)(=O)c2cc(C(=O)O)cc(-c3ccc4[nH]ccc4c3)c2)CC1 | 11 |
| COC(=O)c1ccsc1-n1c(C)ccc1C | ? |
| COc1ccc(-c2nc(N3CCC(c4ccccc4)C3)c3ccccc3n2)cc1 (stereo not drawn) | -19 |
| CCS(=O)(=O)Nc1ccc2c(c1)C(=O)N(C)[C@@H]1CC[C@@H](CC(=O)N[C@H]3CCN(Cc4ccccc4)C3)O[C@@H]1CO2 | 0 |
| COc1cc(NC(=O)c2c(O)c3cccnc3n(-c3ccc(F)cc3)c2=O)cc(OC)c1 | 97 |
| CN1C(=O)c2cc(NC(=O)c3ccc(C(F)(F)F)cc3)ccc2OC[C@@H]2O[C@@H](CC(=O)NCc3ccc4c(c3)OCO4)CC[C@@H]21 | -82* |
| N#Cc1c(N2C[C@@H]3NCCO[C@H]3C2)c(F)cc2c(=O)c(C(=O)O)cn(C3CC3)c12 | -86* |
| Cc1ccc(CN2CCC3(CC2)CN(CC2CC2)C(=O)CO3)o1 | 4 |
| O=C(Nc1ccc(Br)cc1F)c1cccc(Br)c1 | 437 |
| O=C(CSc1nnc(Cc2ccccc2)n1Cc1ccccc1)NCc1ccco1 | -3 |
| Cc1coc2c1c(C)cc1oc(=O)c(Cc3ccccc3)c(C)c12 | -27 |
| CN1C[C@H]2CN(Cc3ccc4c(c3)OCO4)CCC[C@@]2(C(=O)O)C1 | -53 |
| COCc1cc(N(C)C)nc(-c2csc(C)n2)n1 | -28 |
| Cc1oc(-c2cccc(Br)c2)nc1Cn1cnc2onc(-c3ccc(Cl)cc3)c2c1=O | 9 |
| CC(C)CC(=O)N1CCC(C)(C(=O)NCc2ccc(F)cc2F)CC1 | -13 |
| O=C(CC1N=C2c3ccccc3N=C(SCc3cccc(F)c3)N2C1=O)NCc1ccccc1 (stereo not drawn) | -19 |
| CS(=O)(=O)NC[C@@]12COC[C@H]1CN(C(=O)C1CC(F)(F)C1)C2 | 5 |
| CNC[C@H]1Oc2c(NC(=O)Nc3cccc4ccccc34)cccc2C(=O)N([C@@H](C)CO)C[C@H]1C | 25 |
| Cc1ccsc1[C@@H]1CCN(Cc2ccc(CN(C)S(C)(=O)=O)o2)C[C@H]1O | -6 |
| O=S1(=O)CCC(N2C(=S)SC3CS(=O)(=O)CC32)C1 (stereo not drawn) | -39 |
| CC1=C(C(=O)Nc2ccc(C)cc2C)C2(CCN(C(C)C)CC2)OC1=O | 21 |
| OCCn1ccnc1-c1cnc(NCC2CCCO2)nc1 (stereo not drawn) | -20 |
| CCOC(=O)/C=C1\NC(C)(C)Cc2cc(OC)c(OC)cc21 | -34 |
| O=S(=O)(/C=C/c1ccccc1)c1ccc(F)c(Cl)c1 | 11 |
| CCC1CCCCN1C(=O)CCNc1c(-c2cccc(OC)c2)nc2cnccn12 (stereo not drawn) | 157 |
| CCn1ncc(-c2cc(C(=O)NCC(C)(C)c3ccccc3F)on2)c1C | 32 |
| COCCNC(=O)C[C@H]1CC[C@H]2[C@@H](COC[C@@H](O)CN2Cc2ccc(Cl)c(Cl)c2)O1 | -13 |
| CCOc1ccc(-c2cnc(-c3cnc(-c4ccccn4)nc3)[nH]2)cc1 | -22 |
| Cc1ccc(-c2nc(Cn3nnc(-c4nc(-c5ccccc5)no4)c3C)c(C)o2)cc1 | -55 |

Quoted from the listing for reference:
| molecule | Tgondii IFNg |
| --- | --- |
| O=C(CC1N=C2c3ccccc3N=C(SCc3cccc(F)c3)N2C1=O)NCc1ccccc1 (stereo not drawn) | -19 |
| CS(=O)(=O)NC[C@@]12COC[C@H]1CN(C(=O)C1CC(F)(F)C1)C2 | 5 |
| CNC[C@H]1Oc2c(NC(=O)Nc3cccc4ccccc34)cccc2C(=O)N([C@@H](C)CO)C[C@H]1C | 25 |

The list continues:
| molecule | Tgondii IFNg |
| --- | --- |
| COCC1CN(Cc2cccs2)Cc2nn(CC3CC3)cc21 (stereo not drawn) | -3 |
| COc1cnc(N2C[C@H]3C[C@H](O)[C@@H](O)C[C@H]3C2)nc1 | 57 |
| COCCN1CCN(C(=O)NCc2cccnc2)Cc2cccnc21 | 1 |
| Nc1nc(CNC(=O)CCSc2ccc3c(c2)OCCO3)cs1 | -17 |
| CC(Cc1cn(C)c2ccc(F)cc12)NC(=O)Cn1nnc(-c2ccccc2)n1 (stereo not drawn) | 0 |
| COc1ccc(C2=NC3(CCN(Cc4cc(C)ccc4C)CC3)NC2=O)cc1 | 56 |
| Cc1occc1C(=O)N1CCN(CC2CC2)c2ncccc2C1 | 196 |
| NC(=O)CCC1NC(=O)C(Cc2ccccc2)NC(=O)C(Cc2ccc(O)cc2)NC(=O)CCSSCC(C(=O)N2CCCC2C(=O)NC(CCCN=C(N)N)C(=O)NCC(N)=O)NC(=O)C(CC(N)=O)NC1=O (stereo not drawn) | 7 |
| Cc1c(S(=O)(=O)N2C[C@H]3C(=O)Nc4ccccc4C(=O)N[C@@]3(C)C2)cnn1C(F)F | 15 |
| CCc1nc(OCC(=O)Nc2ccc(C)cc2C)c2ccccc2n1 | 13 |
| CCc1cccc(OCCCN(C)C(=O)c2cccc3nccnc23)c1 | -40 |
| c1cncc(CN2C[C@@H]3N[C@H](C2)C3c2ccc(-c3cccnc3)cc2)c1 (stereo partly drawn) | 25 |
| O=C(C[C@H]1CC[C@@H]2[C@H](COC[C@H](O)CN2C(=O)Nc2cc(Cl)cc(Cl)c2)O1)N1CCOCC1 | 15 |
| CCCCSC(=S)NC1CCS(=O)(=O)C1 (stereo not drawn) | 4 |
| CCOC(=O)Cn1c(C)c(CN2CCCC2c2cc(C(C)C)no2)c2ccccc21 (stereo not drawn) | 1 |
| COc1ccccc1CN1[C@@H]2CNC[C@H]1C2c1ccc(/C=C/c2ccccc2)cc1 (stereo partly drawn) | -13 |
| COc1cc(OC(C)=O)c(-c2cc(OC(C)=O)c(OC)cc2OC(C)=O)cc1OC(C)=O | 104 |
| COc1cccc(-n2c(=O)c(C(=O)NC3CCCC3)c(O)c3cccnc32)c1 | 15 |
| CCc1cccc(OCCN(C)c2ncnc3c2CCNC3)c1 | -36 |
| COc1cccc(S(=O)(=O)N[C@@H]2CC[C@H](CC(=O)NC3Cc4ccccc4C3)O[C@H]2CO)c1 | -10 |
| CCc1c(C)oc2cc3ccccc3c-2c1C | 51 |
| Cc1cc(C)nc(SCC(=O)N2c3ccccc3Sc3ccccc32)n1 | -1 |
| CC(C)c1ccc(NS(=O)(=O)c2cc3c4c(c2)CCN4C(=O)CC3)cc1 | -77* |
| CCCN1C[C@H](C)[C@@H](OC)CN(C)C(=O)c2cc(NC(=O)C3CCC3)ccc2OC[C@@H]1C | 7 |
| O=C(Cn1c(=O)cc(-c2nc(C3CC3)no2)c2ccccc21)NCc1ccccc1F | 68 |
| COc1cc(-n2ccnc2-c2ccc3c(c2)OCCO3)cc(OC)c1OC | 48 |
| CCCn1c(=O)c(-c2nc(-c3ccc(OC)cc3OC)no2)c(O)c2ccccc21 | -2 |
| CCc1nc(N2[C@H](C#N)[C@@H](c3ccccc3-c3ccc(F)cc3)[C@@H]2CO)sc1C | -36 |
| Cc1noc(C)c1S(=O)(=O)N1CCN(c2ccccn2)CC1 | -53 |
| C=C1/C(=C\C=C2/CCC[C@]3(C)[C@@H]([C@H](C)/C=C/C=C/C(O)(CC)CC)CC[C@@H]23)C[C@@H](O)C[C@@H]1O | 11 |
| Cc1cc(CN(CCN2CCOCC2)Cc2cccnc2)c(C)n1-c1ccccn1 | -29 |
| CC(C)NC(=O)N1CCc2cc(C(=O)N3CCCC3)c(NC(C)C)nc2CC1 | -6 |
| Cn1nc(CC2CCN(C(=O)c3cnco3)CC2)n(-c2ccccc2)c1=O | -21 |
| Cn1cc(-c2cnc(-c3ccnn3C)nc2)cc1C(=O)NC(C)(C)C | 40 |
| O=C(O)CCSc1cccc(C(F)(F)F)c1 | 41 |
| C[C@H](CO)N1C[C@H](C)[C@H](CN(C)S(=O)(=O)c2ccc(F)cc2)OCCCC[C@H](C)Oc2ccc(N(C)C)cc2C1=O | i |
| Cc1ccc(S(=O)(=O)N2CCC3(CC3C(=O)Nc3cccc(F)c3)C2)cc1F (stereo not drawn) | -65 |
| Cc1nnc(CNC(=O)CC2(Cc3ccccc3)C(=O)N(C)c3ccccc32)o1 (stereo not drawn) | -5 |
| NS(=O)(=O)c1ccc(NC(=O)CSC2=NC(=O)C(c3ccccc3)C(=O)N2)cc1 (stereo not drawn) | 9 |
| O=c1ccc2cc(S(=O)(=O)Nc3cccc4c3CCCC4)ccc2[nH]1 | 316 |
| CN(C)c1nc2c(cc1C(=O)N1CCCC1)CCN(Cc1ccccc1)CC2 | -36 |
| COc1cc(/C=C/CN2CCC3(CC2)c2ccccc2[C@@H](NC(=O)C(C)C)[C@@H]3OC)ccc1O | 13 |
| COCC(=O)N1C[C@H](N(C)Cc2ccco2)C2OCCCC21 (stereo partly drawn) | 54 |
| Cc1ccc2nc(COCC(=O)O)[nH]c2c1 | 21 |
| Cc1cccc(N2C(=O)CC(Sc3nnc(C)s3)C2=O)c1 (stereo not drawn) | -5 |
| Cc1cc(OCc2nnc(-c3ccc4ccccc4c3)o2)c2nncn2n1 | -3 |
| O=C(c1ccccn1)N1CCCC2(C1)Nc1cccnc1NC2=NC1CCCC1 (stereo not drawn) | 75 |
| COc1ccc(C(=O)NCCc2sc(-c3cccc(F)c3)nc2C)c(OC)c1 | -42 |
| OC1(c2cccc(C(F)(F)F)c2)CCN(Cc2ncccc2F)CC1 | 0 |
| CN1CC(=O)N(CC(=O)N2CCOC(c3ccc(Cl)c(Cl)c3)C2)C1=O (stereo not drawn) | -45 |
| CCOc1ccccc1-c1nc(Cn2ccn3nc(-c4ccccc4)cc3c2=O)c(C)o1 | 204 |
| C=CCN(Cc1ccc(F)cc1)C(=O)C1CCN(CC(N)=O)CC1 | 0 |
| CN1C[C@@H]2CC[C@H](CC1=O)N2C(=O)c1cnnn1-c1ccccc1 | -16 |
| CCCNC(=O)N1[C@H](CO)[C@H](c2ccc(-c3ccc(C#N)cc3)cc2)[C@@H]1CNC | -28 |
| CC(C)(C)NC(=O)C(c1cccnc1)N(C(=O)c1ccc(Cl)nc1)C1CCCC1 (stereo not drawn) | -28 |
| C/C=C/c1cccc(-c2nc(C(=O)N3CCCCC3)cc3c2[C@H](CCO)N(C(=O)NC(C)C)C3)c1 | -20 |
| COCc1cc(CNC(=O)c2csc3c2CCCC3)[nH]n1 | -20 |

Structural class, the entries above containing a tert-butyl group (4)
| molecule | Tgondii IFNg |
| --- | --- |
| CC(C)CNC(=S)NCCNC(=O)OC(C)(C)C | 30 |
| CCN(CC)CCCCNc1ncc2cc(-c3cc(OC)cc(OC)c3)c(NC(=O)NC(C)(C)C)nc2n1 | -48 |
| Cn1cc(-c2cnc(-c3ccnn3C)nc2)cc1C(=O)NC(C)(C)C | 40 |
| CC(C)(C)NC(=O)C(c1cccnc1)N(C(=O)c1ccc(Cl)nc1)C1CCCC1 (stereo not drawn) | -28 |

An excerpt; count on the stated rates, not on these rows.
